AF4-AF9 inh – inhibitors of human MLL-AF4/AF9 interaction; P42568; AlphaScreen, biotin-AF4 peptide binding to FLAG-AF9; inhibition, % at 10 µM; hit rate 0.47% among 350,000; AID 651704;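 active = every replicate reaching a set inhibition limit, whatever the replicate mean, cut at about 25% in these data; inconclusive = mean inhibition reaches that limit but some replicates miss it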;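 note: 0% = plate neutral control median and 100% = total signal loss; the record names both 10 and 1 µM as test concentration; the first replicate is given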
Target sequence (P42568 whole entry, looked up): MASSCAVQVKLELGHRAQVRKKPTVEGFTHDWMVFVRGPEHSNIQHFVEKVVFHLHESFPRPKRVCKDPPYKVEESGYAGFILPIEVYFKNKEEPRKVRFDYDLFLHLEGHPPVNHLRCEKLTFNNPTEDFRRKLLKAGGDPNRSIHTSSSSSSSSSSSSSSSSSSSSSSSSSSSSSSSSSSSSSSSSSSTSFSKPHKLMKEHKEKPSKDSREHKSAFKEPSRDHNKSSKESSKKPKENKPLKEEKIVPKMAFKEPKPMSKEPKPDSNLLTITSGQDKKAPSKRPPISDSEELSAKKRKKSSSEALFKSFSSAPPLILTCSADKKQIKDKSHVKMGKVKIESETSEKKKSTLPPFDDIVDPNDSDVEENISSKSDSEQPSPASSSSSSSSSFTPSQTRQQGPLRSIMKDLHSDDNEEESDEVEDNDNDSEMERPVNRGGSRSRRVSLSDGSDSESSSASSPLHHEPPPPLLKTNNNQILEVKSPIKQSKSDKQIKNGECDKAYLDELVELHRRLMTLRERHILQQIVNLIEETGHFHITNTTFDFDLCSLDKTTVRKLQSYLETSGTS
Bfl-1 A1 inh – inhibitors of the anti-apoptotic protein A1, read as caspase activation. hit rate 0.066% among 330,000. caspase activation, % (test concentration not listed). AID 2462. MEF A1-2A-BIM cells, Caspase-Glo 3/7 luminescence, 3 h; percent of clofoctol response, vehicle zero;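 active = over half of replicate activation scores above 10%, or exactly half above 10 with the replicate mean above 10; inconclusive = replicate mean below 10 yet half the replicates above 10; inactive = over half of replicates below 10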;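 note: wells of about 30 µL received 50 nL stock; many hits fall short of the cut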
Vif A3G – HIV-1 Vif–A3G interaction blockers – biochemical, TR-FRET, GST-Vif 1-94, biotin-A3G peptide, dose response retest, primary screen (AID 1117319) | inhibition, %, or IC50 in µM where a hit was titrated | hit rate 0.57% among 260,000 | TR-FRET GST-Vif / biotin-A3G peptide binding; higher % means a stronger effect; test concentration not given here; strong numbers were not always called active;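 active = above the screen mean plus three standard deviations and confirmed in dose response; inconclusive = results disagree or hit not tested in dose response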;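 note: Vif residues 1-94 fused to GST binding biotinylated APOBEC3G peptide 110-148; 0% = full assay without inhibitor and 100% = GST in place of GST-Vif; retest series ran down from 100 µM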
T cruzi inh – blocks replication of Trypanosoma cruzi; inhibition, % (concentration not given with the values); T. cruzi beta-gal in NIH3T3, luminescence, 90 h; hit rate 1.4% among 300,000;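 active = mean inhibition across valid replicates above about 55%, limit read from the data; inconclusive = mean below that limit but half or more replicates reach it; inactive = mean below it, under half of replicates reach it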;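 note: signal also drops with host cell toxicity which is not excluded here; 0% = plate median of DMSO wells and 100% = zero luminescence signal; higher percent means less beta-gal luminescence so fewer parasites; stock transfer was 50 nL into about 50 µL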
LANA-H2A inh – blocks KSHV LANA binding to histone H2A/H2B; Q9QR71; cell-free LANA-H2A/H2B peptide, fluorescence polarization; inhibition, % (concentration not given with the values); hit rate 0.6% among 320,000; AID 2629; in the data active = inhibition mostly above about 10%, no sharp cut-off; inactive = mostly below about 6.7%;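 note: stock transfer was 7.5 nL into about 10 µL; 0% = median of vehicle wells and 100% = median of positive control wells; one replicate is shown; the record names a cut of 25% in any replicate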
RanGTP-Imp inh – inhibitors of RanGTP-importin-beta interaction, primary screen, biochemical, FRET, CFP-Ran, YFP-importin-beta, homogeneous; cell-free CFP-Ran/YFP-importin-beta FRET ratio; inhibition, % (test concentration not listed); hit rate 1.1% among 300,000;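 active = most replicates above 15%; inconclusive = exactly half above 15%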;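 note: 0% = DMSO wells and 100% = Ran loaded with GDP instead of GTP; wells of about 40 µL received 100 nL stock; the first replicate is given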
Calb FLC – C. albicans growth modulation with fluconazole. growth inhibition, % (no concentration beside the values). C. albicans CaCi-2 (fluconazole-resistant clinical isolate) + fluconazole, Alamar Blue growth, 48 h. AID 1979. hit rate 0.57% among 300,000;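 active = most replicates above 75%; inconclusive = exactly half above 75%; inactive = most below 75%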;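 note: all wells also contain fluconazole at 8 µg/ml as a sub-toxic cotreatment; 0% = median of DMSO wells and 100% = median of geldanamycin control wells; wells of about 8 µL received 7.5 nL stock; the first replicate is given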
Beta apoptosis – beta cell apoptosis inhibition; hit rate 0.8% among 300,000; protection from apoptosis, % (test concentration not listed); INS-1E cytokine-induced death, ATP luminescence, 48 h; percent of positive-control rescue, neutral wells zero;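 active = all replicates at 75% or more, or half of them and the mean; inconclusive = half reach 75% but not the mean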;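 note: 0% = cytokine-treated negative control wells and 100% = positive control rescue; higher means more ATP so stronger rescue from cytokine killing; wells of about 40 µL received 100 nL stock; the first replicate is given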
The depositor's hits bear a star; ? = inconclusive; . = no result given; & = joins results of further samples.

SMILES	AF4-AF9 inh	Bfl-1 A1 inh	Vif A3G	T cruzi inh	LANA-H2A inh	RanGTP-Imp inh	Calb FLC	Beta apoptosis
O=C(COc1ccccc1)Nc1nc2cc3c(cc2s1)OCO3	1.9	-0.3	-0.9%	4.0	-2.4	-2.6	-2.4	1.7
COc1ccc(NC(=O)C2CCCN(c3nn4c(=O)cc(C)nc4s3)C2)c(OC)c1 (stereo not given)	-2.3	-0.8	.	-11.3	10.9*	-3.9	-14.9	-0.6
COc1ccc(C)cc1S(=O)(=O)Nc1cccc(C)c1	-4.6	-0.1	.	13.4	2.3	11.5	-1.2	-0.7
COc1ccc(/C=N/NC(=O)CC(=O)NC2CCCCC2)cc1	0.3	-0.6	0.3%	-0.5	0.7	2.1	-2.8	.
COc1ccc(NS(=O)(=O)c2ccc(S(=O)(=O)N3CCOCC3)cc2)cc1	2.7	0.2	-5.3%	-14.1	0.9	1.6	19.7	0.6
Cc1cccc(-c2nc(N)nc(N)n2)c1	-2.5	-0.9	14.7%	-22.6	2.8	1.3	2.9	-5.1
O=C(c1ccccc1)c1cccn1CC(=O)N1CCc2ccccc2C1	-0.4	0.0	.	10.5	0.2	3.7	1.8	-1.1
O=C(COC(=O)C1(c2ccccc2F)CCCC1)NC1CCS(=O)(=O)C1 (stereo not given)	.	-0.1	-8.9%	4.5	3.1	2.3	0.6	-0.7
CN(C)C=NC1=NN(c2cccc(C(F)(F)F)c2)CC1	.	-0.3	2.6%	40.2	-1.3	0.4	?	0.8
Cc1nnc(SCc2c(Cl)cccc2[N+](=O)[O-])s1	-0.7	-0.8	1.9%	-24.4	-1.5	2.7	-15.8	5.3
CCCOC(=O)c1ccc(Oc2cn[nH]c2-c2ccc(OC)cc2O)cc1	.	0.5	-2.7%	-21.6	-3.2	?	20.5	0.6
COc1cccc(CN2CCC(C(=O)N3CCN(Cc4ccc5c(c4)OCO5)CC3)CC2)c1OC	1.3	0.3	.	16.8	2.8	-1.3	-38.3	-0.4
COc1ccc(NS(=O)(=O)c2cc(Br)cc3c2N(C(C)=O)CC3)cc1	-1.2	1.4	.	-2.5	0.6	2.2	-2.0	.
CCCCCSc1nnc2c(n1)OC(C)N(C(C)=O)c1ccccc1-2 (stereo not given)	0.6	-0.1	?	5.0	-3.1	-4.1	-5.2	0.0
CC(NC(=O)Nc1ccccn1)N1C(=O)C2C3C=CC(C3)C2C1=O (stereo not given)	.	0.2	24.0%	-10.3	-2.9	-1.8	0.1	-9.4
CCn1c(SCc2nc(-c3ccccc3)no2)nnc1-c1ccco1	.	0.8	?	-17.4	1.7	-0.7	-13.0	-1.7
COc1ccccc1NC(=O)Nc1ccnn1C1CCN(C(=O)c2cscn2)CC1	-1.0	0.0	3.4%	-15.2	5.6	-4.5	-7.5	-1.9
CCOC(=O)c1[nH]ncc1CN1CCCC(C(=O)c2ccc(SC)cc2)C1 (stereo not given)	1.6	1.2	-12.1%	24.1	0.0	0.6	?	3.4
N#CC1=C(SCC(N)=O)NC2=C(C(=O)c3ccccc32)C1c1ccc(Cl)cc1 (stereo not given)	.	1.2	16.9%	-18.1	5.6	3.8	-2.4	13.3
CCOc1ccc(NC(=O)CNC(=O)c2ccco2)cc1	-5.7	-2.7	.	-3.3	-1.3	4.8	5.2	.
Cc1ccccc1OCCC(=O)OCC(=O)Nc1c(F)cccc1F	1.4	0.7	-7.5%	-14.6	-7.6	1.6	2.4	-9.0
CN(C)CCCNC(NC(=O)/C=C/c1ccccc1)C(Cl)(Cl)Cl (stereo not given)	-4.7	-0.4	-14.9%	36.1	3.7	3.1	11.2	-2.0
CCC(=O)N1CCc2cc(S(=O)(=O)NC(C(=O)N3CCc4ccccc4C3)C(C)C)ccc21 (stereo not given)	.	-0.1	0.2%	.	4.8	.	.	-1.9
O=C(CN1CCCC1)Nc1cc(C(F)(F)F)cc(C(F)(F)F)c1	-0.6	-0.3	.	17.2	3.1	-0.6	1.9	6.8
COc1cccc(N/C=C(\C#N)c2ccc(OCCCF)cc2)c1	.	1.7	5.8%	6.3	4.2	-2.1	5.5	4.4
Cc1ccccc1C(=O)Nc1nnc(-c2ccncc2)o1	-0.1	0.5	0.4%	-9.9	-1.1	-1.9	-16.7	1.2
COC(=O)COc1ccc(S(=O)(=O)N2CCN(c3ccc(OC)cc3)CC2)cc1	-0.8	-0.6	9.1%	-5.9	1.2	3.2	6.0	-9.0
COc1cc(C(=O)N/N=C/c2ccc(OC)c(CN3CCN(c4ccc(F)cc4)CC3)c2)ccc1O	15.1	0.3	-4.8%	0.6	3.1	1.2	-4.1	4.3
CCCCCCN1CC(O)=C(c2ccccc2)C1=N	.	-0.5	3.2%	-13.7	-2.2	0.8	-16.0	-0.2
O=C(CNC(=O)c1ccncc1)N/N=C/c1cc(Br)ccc1O	.	0.9	-7.6%	-4.4	-7.7	-1.5	-11.6	-1.4
COc1ccccc1NC(=O)Nc1nc(CC(=O)N2CCN(c3ccccc3OC)CC2)cs1	0.9	-0.8	3.8%	-0.2	2.8	-4.9	-5.4	-0.8
C=CCNC(=O)CN1CCC(O)(c2ccccc2)CC1	1.3	0.7	7.7%	4.7	3.9	1.0	-9.7	-6.5
Cc1cccc(NS(=O)(=O)c2ccc(C(=O)NCC3CCCO3)cc2)c1C (stereo not given)	0.0	0.0	.	-7.5	0.1	-4.8	-0.2	-1.6
COc1ccc(CCNC(=O)[C@@H](NC(=O)N2CC(=O)Nc3ccccc32)C(C)C)cc1OC	1.2	-1.6	.	-31.1	-4.1	0.1	-5.2	.
COc1ccc(CCCc2n[nH]c(=S)o2)c(C)c1	-5.7	-1.3	.	-0.9	-2.1	-2.3	-10.7	0.7
O=C(CSc1nccn1Cc1ccc(F)cc1)Nc1ccc(F)cc1F	8.3	0.2	.	-7.9	0.9	3.5	9.9	1.6
CCCCCCNCC(=O)N1CCC(Cc2ccccc2)CC1	1.8	0.4	4.4%	34.2	-4.1	?	6.3	6.7
COc1ccccc1NC(=S)NNC(=O)c1cc(C)nn1C	.	-0.7	4.7%	-3.9	-0.7	-0.4	-31.0	1.5
CCNC(=S)N=Nc1c(O)[nH]c2ccc(C(C)C)cc12	-4.3	-0.5	-13.6%	14.4	-2.4	1.3	24.8	19.7
CCc1ccc(NC(=S)N(Cc2ccc(Cl)cc2)Cc2ccc(C(=O)O)cc2)cc1	-0.9	-0.8	-6.5%	-0.9	-5.8	1.7	-5.1	-1.4
Cc1ccc(C)c(S(=O)(=O)Nc2ccccc2C(=O)Nc2ccccc2N2CCOCC2)c1	.	0.8	67.5%	-18.7	-0.6	2.1	6.5	6.6
COc1ccc(-c2cc(C(F)(F)F)nc(SCC(=O)NCc3cccs3)n2)cc1	.	1.2	-9.2%	46.6	-2.0	5.5	25.3	3.9
COc1ccc(Cn2nnnc2C(c2cccs2)N2CCN(c3ccccc3)CC2)cc1 (stereo not given)	.	-0.4	-3.2%&-10.7%	38.2	1.7	-0.6	-17.4	2.1
O=C(CC(=O)N/N=C\c1ccccc1[N+](=O)[O-])NCCc1ccccc1	-1.0	0.3	.	-1.3	0.0	-3.6	6.8	-1.3
COc1cc(S(=O)(=O)N2CCCCC2)ccc1NC(=O)/C=C/c1ccccc1	.	1.8	14.0%	0.0	1.2	-1.5	2.9	-2.7
CCC(=O)NCc1csc(-c2cccs2)n1	0.6	0.4	.	.	1.6	6.1	17.8	-7.6
O=S(=O)(c1ccc(F)cc1)N1CCN(c2nc(-c3ccc(F)cc3)cs2)CC1	5.1	-0.4	-10.4%	19.9	0.1	-0.1	30.4	-2.4
COC(=O)C(N)Cc1ccc(O)c(O)c1 (stereo not given)	.	0.2	21.5%	1.6	0.9	2.6	12.4	-3.8
COc1ccc2c(c1)-c1ccccc1S(=O)(=O)N2C	.	-0.1	3.9%	3.5	-1.1	1.9	8.7	.
O=[N+]([O-])c1nn(-c2ccc(Cl)cc2)n(O)c1=NCc1ccncc1	-23.1	1.2	-10.8%	32.3	-3.5	9.5	-12.5	14.8
CCOc1cc(N2CCOCC2)c(OCC)cc1NC(=O)COC(=O)[C@H](Cc1c[nH]c2ccccc12)NC(C)=O	.	0.6	2.9%	-4.0	2.8	2.2	-4.0	-12.1
COC(=O)C1CCN(C(=O)CC(NC(=O)C(F)(F)F)c2cccs2)CC1 (stereo not given)	-1.3	-0.8	-12.1%	-0.4	-2.4	2.9	28.8	-1.0
O=C(O)CSCC(=O)Nc1ccccc1SCCS(=O)(=O)c1ccc(Cl)cc1	-2.6	0.5	-6.8%	-4.7	6.1	?	-5.8	1.3
O=C(CN1C(=O)S/C(=C\C=C\c2ccccc2)C1=O)Nc1ccc(C(=O)O)cc1	-54.4	-0.5	.	-8.7	-2.0	-3.4	0.4	-5.6
O=C(Cn1c(-c2cscn2)nc2ccccc21)Nc1cc(F)ccc1F	.	-0.1	-11.2%	.	2.8	0.4	-11.1	-2.1
Cc1cccn2c(NC(=O)c3cccs3)c(-c3ccccc3)nc12	.	0.0	.	7.9	5.8	-0.8	6.7	-7.2
COc1ccc([N+](=O)[O-])cc1NC(=O)CSc1nccc(C)n1	-0.1	1.3	.	-19.5	-5.9	-1.8	-2.1	3.5
COc1ccc(OC)c(S(=O)(=O)NC2CCCCNC2=O)c1 (stereo not given)	-3.1	0.1	1.3%	-2.9	-1.8	0.0	2.4	.
COc1cc(OC)cc(C(=O)N2CCN(C(=O)c3cccnc3)CC2)c1	-0.1	-0.1	2.3%	-7.3	-0.1	-1.3	4.2	-7.6
O=C(NCc1ccco1)c1cc(Cl)nc(Cl)c1	0.6	0.2	.	8.0	3.8	0.5	8.5	0.5

Next section.
SMILES	AF4-AF9 inh	Bfl-1 A1 inh	Vif A3G	T cruzi inh	LANA-H2A inh	RanGTP-Imp inh	Calb FLC	Beta apoptosis
O=C(CSc1nncc2ccccc12)Nc1ccccc1	-1.0	1.3	.	-1.2	-3.3	?	0.3	-12.7
COC(=O)c1cccc(NC(=O)CCc2ccccc2)c1	-6.4	-0.7	2.6%	-4.9	3.5	-1.0	-1.8	2.5
CNC(=O)COc1ccc(S(=O)(=O)Nc2ccc(OC)cc2)cc1	-1.1	-0.1	4.7%	-16.4	-0.8	.	3.1	-7.2
CC(NC(=O)Cn1cnnn1)C12CC3CC(CC(C3)C1)C2 (stereo not given)	.	-0.4	-1.4%	-15.4	-5.2	-2.6	21.1	-3.5
NC(=O)CCCn1c(C(=O)c2ccc(Cl)cc2)c2ccc(C(F)(F)F)cc2[n+]1[O-]	9.0	-0.7	.	16.4	-0.2	0.0	7.5	-2.4
Cc1ccccc1CCNC(=O)C1CCC(=O)N(CCc2cccc(F)c2)C1 (stereo not given)	-0.9	.	-3.0%	0.9	.	0.2	-11.3	.
O=C(O)c1cc(-c2ccc3ccccc3c2)nc2ccc(F)cc12	2.8	-3.4	.	4.5	-3.3	0.0	68.6	.
COC(=O)c1nn(-c2ccccc2)c(=O)cc1Sc1ccc(Cl)cc1	-2.3	0.5	.	-17.1	-1.6	-0.7	-1.8	.
